# UCH37 DUB inh: human UCH37 deubiquitinating enzyme inhibition; inhibition, % (concentration not given with the values); hit rate 0.33% among 330,000; Q9Y5K5; purified proteasome/UCH37, Ub-AMC cleavage fluorescence;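 active means mean of two replicates above 20%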;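 further: 0% = compound-free wells with enzyme and 100% = wells lacking proteasome; stock transfer was 100 nL into about 20 µL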
# Target sequence (Q9Y5K5 whole entry, looked up): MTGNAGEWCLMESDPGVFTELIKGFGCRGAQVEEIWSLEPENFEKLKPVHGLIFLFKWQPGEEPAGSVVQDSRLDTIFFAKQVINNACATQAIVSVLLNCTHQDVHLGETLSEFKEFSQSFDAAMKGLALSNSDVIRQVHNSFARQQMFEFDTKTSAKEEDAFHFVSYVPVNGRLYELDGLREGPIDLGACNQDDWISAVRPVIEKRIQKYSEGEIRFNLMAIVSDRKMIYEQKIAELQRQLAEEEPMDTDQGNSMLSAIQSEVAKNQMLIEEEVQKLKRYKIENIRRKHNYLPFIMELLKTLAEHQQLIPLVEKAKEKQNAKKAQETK
#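 Reagent: Ub-AMC substrate; assay system: Proteasome-associated human UCH37 deubiquitinase; controls: no-proteasome and no-compound wells; read-out: % inhibition of Ub-AMC cleavage fluorescence; timing: 30 min preincubation with enzyme, 25 min cleavage at room temperature; signal: AMC fluorescence from Ub-AMC cleavage, excitation 355 nm, emission 460 nm; buffer or medium: Tris-HCl pH 7.4 plus ovalbumin, ATP-MgCl2, DTT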
# Bfl-1 A1 inh: inhibitors of the anti-apoptotic protein A1, read as caspase activation; caspase activation, % (no concentration beside the values); AID 2462; hit rate 0.066% among 330,000; MEF A1-2A-BIM cells, Caspase-Glo 3/7 luminescence, 3 h; percent of clofoctol response, vehicle zero;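 active means over half of replicate activation scores above 10%, or exactly half above 10 with the replicate mean above 10; inconclusive means replicate mean below 10 yet half the replicates above 10; inactive means over half of replicates below 10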;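 further: wells of about 30 µL received 50 nL stock; many hits fall short of the cut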
# E coli growth: E. coli growth inhibition; Escherichia coli growth, OD600, 23 h; active compounds read low; OD600 absorbance (test concentration not listed); hit rate 0.21% among 330,000; AID 1053175;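 active means OD600 absorbance below the run mean of sample wells minus 3.6 SD, in any replicate, cut at about 0.56 in these data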;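 further: stock transfer was 300 nL into about 60 µL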
# Beta cell apopt: blocks beta cell apoptosis; INS-1E cytokine-induced death, ATP luminescence, 48 h; percent of positive-control rescue, neutral wells zero; protection from apoptosis, % (no concentration beside the values); hit rate 0.8% among 300,000;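 active means all replicates at 75% or more, or half of them and the mean; inconclusive means half reach 75% but not the mean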;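 further: 0% = cytokine-treated negative control wells and 100% = positive control rescue; higher means more ATP so stronger rescue from cytokine killing; wells of about 40 µL received 100 nL stock; the first replicate is given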
# T cruzi repl: blocks replication of Trypanosoma cruzi; T. cruzi beta-gal in NIH3T3, luminescence, 90 h; AID 1885; hit rate 1.4% among 300,000; inhibition, % (concentration not given with the values);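 active means mean inhibition across valid replicates above about 55%, limit read from the data; inconclusive means mean below that limit but half or more replicates reach it; inactive means mean below it, under half of replicates reach it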;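 further: signal also drops with host cell toxicity which is not excluded here; 0% = plate median of DMSO wells and 100% = zero luminescence signal; higher percent means less beta-gal luminescence so fewer parasites; stock transfer was 50 nL into about 50 µL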
# MLL AF4-AF9 inh: MLL-AF4/AF9 protein interaction inhibition; P42568; AlphaScreen, biotin-AF4 peptide binding to FLAG-AF9; inhibition, % at 10 µM; hit rate 0.47% among 350,000;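 active means every replicate reaching a set inhibition limit, whatever the replicate mean, cut at about 25% in these data; inconclusive means mean inhibition reaches that limit but some replicates miss it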;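 further: 0% = plate neutral control median and 100% = total signal loss; the record names both 10 and 1 µM as test concentration; the first replicate is given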
# Target sequence (P42568 whole entry, looked up): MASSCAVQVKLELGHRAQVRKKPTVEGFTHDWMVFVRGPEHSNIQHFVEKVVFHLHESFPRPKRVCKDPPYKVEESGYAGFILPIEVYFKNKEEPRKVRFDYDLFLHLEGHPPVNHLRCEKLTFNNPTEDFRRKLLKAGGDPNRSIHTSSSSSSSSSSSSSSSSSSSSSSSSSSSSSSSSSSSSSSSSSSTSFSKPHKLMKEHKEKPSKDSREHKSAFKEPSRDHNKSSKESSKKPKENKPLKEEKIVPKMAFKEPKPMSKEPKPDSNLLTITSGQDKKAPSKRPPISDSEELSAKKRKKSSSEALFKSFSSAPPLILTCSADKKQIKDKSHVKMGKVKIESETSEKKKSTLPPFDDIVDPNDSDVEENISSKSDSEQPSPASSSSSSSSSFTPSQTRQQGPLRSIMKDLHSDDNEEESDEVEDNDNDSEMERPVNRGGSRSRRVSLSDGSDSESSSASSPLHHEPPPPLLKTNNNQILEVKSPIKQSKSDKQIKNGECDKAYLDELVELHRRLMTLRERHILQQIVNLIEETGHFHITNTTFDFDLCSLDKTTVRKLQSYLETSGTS
# FGF22 binding: shifts melting point of recombinant human FGF22; Q9HCT0; recombinant FGF22 thermal shift, SYPRO orange fluorescence; percent of sucrose octasulfate shift, DMSO zero; calls only at 9.99 µM; hit rate 1.5% among 340,000; AID 651658;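 active means melting point raised past a set limit in the mean and every replicate; inconclusive means no clear call; three in four hits are not shown here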
# Target sequence (Q9HCT0 whole entry, looked up): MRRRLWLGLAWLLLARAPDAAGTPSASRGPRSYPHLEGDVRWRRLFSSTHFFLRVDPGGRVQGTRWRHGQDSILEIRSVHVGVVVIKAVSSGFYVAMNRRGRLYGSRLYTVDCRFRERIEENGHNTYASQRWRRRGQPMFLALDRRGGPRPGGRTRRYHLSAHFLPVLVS
# rRNA inh HTS: inhibitors of bacterial rRNA selective over humanized ribosomes. hit rate 1.6% among 350,000. GFP signal change (wild-type ribosome), % (no concentration beside the values). AID 720706. E. coli WT GFP vs humanized-ribosome RFP mutants, fluorescence, 24 h; active compounds read low; DMSO median 0, no signal -100;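 active means significant combined selectivity score with lowered wild-type GFP, culture density cut under 30%, mutant RFP and density less affected; inactive means any of these conditions unmet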; further: one replicate is shown; some compounds called inactive have numbers as strong as hits
# rRNA inh HTS OD600: further read-out of rRNA inh HTS, marked with its call; OD600 change, %; measured here: OD600 growth;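 optical density of the mix in the first replicate; 0 = DMSO median and -100 = no signal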
# rRNA inh HTS RFP: further read-out of rRNA inh HTS, marked with its call; RFP signal change, %; measured here: RFP humanized mutant strains;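 first replicate; 0 = DMSO median and -100 = no signal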
# An asterisk follows results filed as active; i = inactive; ? = inconclusive; . = no result given; & = joins results of further samples.
SMILES,UCH37 DUB inh,Bfl-1 A1 inh,E coli growth,Beta cell apopt,T cruzi repl,MLL AF4-AF9 inh,FGF22 binding,rRNA inh HTS,rRNA inh HTS OD600,rRNA inh HTS RFP
Fc1ccccc1CNc1ncnc2sccc12,0.9,-0.3,0.64,52.9,-37.6,-7.5,i,-19.0,-15.2,-1.8
CC(C)n1c(SCc2cc(=O)[nH]c3ccccc23)nc2c1c(=O)n(C)c(=O)n2C,1.9,-1.3,0.698,3.1,12.8,-15.1,i,3.3,7.2,0.6
CCOc1ccc(NC(=O)CCN2C(=O)c3ccccc3C2=O)cc1,0.6,-0.4,0.682,-2.9,-6.2,0.4,i,1.4,-2.2,-1.7
CCC(CC)NC(=O)Cc1ccc(F)cc1,-1.1,0.2,0.728,-1.1,-11.2,-2.1,i,3.9,9.0,2.5
O=C(c1ccc(CS(=O)(=O)Cc2ccc(Cl)cc2)o1)N1CCCC1,-0.6,-0.1,0.739,-2.0,15.5,.,.,.,.,.
CCC(=O)N1CCC2(CC1)Oc1ccc(F)cc1C(=O)C21CC(c2ccccc2)=NO1 (stereo not given),0.7,-0.4,0.703,-0.8,-10.6,-2.0,i,-10.1,-25.5,-20.6
CC1(C)Cc2c(sc(NC(=O)C(=O)N3CCN(CCO)CC3)c2C(N)=O)CO1,4.3,0.2,0.72,0.4,-2.3,2.7,i,-0.2,0.8,4.4
O=C(CNC(=O)c1cccs1)N/N=C/c1c(F)cccc1Cl,.,0.1,.,-6.7,-2.3,-1.4,i,1.5,2.3,1.5
NC(=O)COC(=O)CNC(=O)c1ccc(Cl)cc1,4.5,0.5,0.678,-4.8,-7.6,.,.,.,.,.
COc1ccc(/C=C/C(=O)Nc2ccc3nc4n(c(=O)c3c2)CCCC4)cc1,-275.9,0.7,0.68,0.9,10.3,-1.6,i,-2.3,0.7,0.3
CCN(CC)c1ccc(C=C(c2nnnn2-c2ccc(C)cc2)c2nnnn2-c2ccc(C)cc2)cc1,1.4,-0.2,0.742,1.6,38.3,.,.,.,.,.
COc1ccc(S(=O)(=O)N2CCCCC2)cc1NC(=O)[C@@H]1CCCN1C(=O)c1cccs1,1.8,-0.6,0.611,-0.9,.,-2.6,i,5.3,-1.4,-0.3
CCS(=O)(=O)C1=NN2C(=N)/C(=C\c3ccc(OC(=O)c4ccco4)c(OC)c3)C(=O)N=C2S1,.,-0.9,.,-4.2,-30.7,5.3,i,-4.1,1.4,-0.6
COc1ccc(C2N(c3cc(C)on3)C(=O)C3CCCN32)cc1OC (stereo not given),0.1,-0.4,0.686,-11.1,-7.0,.,.,.,.,.
CCOC(=O)C(NC(=O)c1ccccc1)(Nc1cc(C)on1)C(F)(F)F (stereo not given),2.8,1.3,0.725,3.2,-6.2,.,.,.,.,.
C=CCOC(=O)C1=C(C)OC(N)=C(C#N)C1c1c(C)nn(-c2ccccc2)c1Cl (stereo not given),2.2,-0.1,0.719,-14.8,.,.,.,.,.,.
CC(=O)c1ccccc1OCc1ccc(C(=O)c2ccccc2)cc1,1.8,-0.5,0.696,.,12.0,-1.6,i,-22.5,-19.3,-1.5
CCCCN(C(=O)c1ccc2c(c1)NC(=O)CS2)c1ccccc1,3.7,0.7,0.674,3.6,.,-1.6,i,.,.,.
Cc1nnc(SCCn2c(N3CCCCCC3)nc3c2c(=O)[nH]c(=O)n3C)s1,1.4,0.2,0.724,-3.4,-2.4,.,.,.,.,.
Cc1noc(C)c1C(=O)Nc1nc(-c2cc(F)ccc2F)cs1,-1.3,.,0.629,.,.,-0.3,i,5.9,0.3,2.0
CCOC(=O)C1CSC(CC(=O)Nc2ccc(OC(F)(F)F)cc2)C(=O)N1 (stereo not given),1.5,-0.5,0.626,-0.8,-11.5,-4.1,i,-16.9,-2.8,-0.6
COc1ccc(CN2C(=O)c3ccccc3C2=O)cc1C(=O)O,2.4,-0.3,0.632,-2.2,-7.0,-8.9,i,10.8,4.4,-1.8
CC(C)(C)C(=O)c1cn(CC(=O)NCc2ccc3c(c2)OCO3)c2ccccc12,4.6,-0.3,0.667,0.1,4.3,.,.,.,.,.
CC(C)(Oc1ccc(Cl)cc1)C(=O)OCc1nc2ccsc2c(=O)[nH]1,-1.2,0.4,0.672,-5.2,-8.8,-1.1,i,-1.3,-1.2,1.4
O=C(COC(=O)c1ccccc1Oc1ccccc1)NC1CC1,0.9,-0.3,0.659,-5.6,-6.5,-0.5,i,.,.,.
COc1ccccc1NS(=O)(=O)c1ccc(C)c(NC(=O)NC2CCCCC2)c1,-2.4,-0.2,0.673,2.5,10.1,.,.,.,.,.
Cc1ccc(-c2nc3ncccc3o2)cc1NC(=O)c1cc2ccccc2o1,-28.8,0.6,0.716,13.7,12.8,.,.,.,.,.
CCOC(=O)CC(NC(=O)CCc1c(C)nc2ncnn2c1C)c1ccc(OC(C)C)cc1 (stereo not given),1.5,0.1,0.662,-4.1,-13.3,1.0,i,7.2,-0.8,-4.0
O=C(NCc1ccccc1)C1=C[C@@H](C2CCCCC2)C[C@@H](OCc2ccc(CO)cc2)O1,1.0,1.4,.,22.9,38.7,0.5&-3.4,i,1.3,2.0,-0.7
Cc1c(NS(=O)(=O)c2cccs2)cccc1-c1nc2cccnc2s1,-13.4,-0.5,0.655,2.5,-5.0,-4.0,i,0.1,10.3,4.2
COc1ccc(Cc2nnc(N/N=C/c3ccc(Br)cc3)[nH]c2=O)cc1OC,.,-0.7,.,6.2,16.5,-0.5,i,6.2,-0.5,-1.9
O=Cc1ccc(OC2OCCOC2Oc2ccc(C=O)cc2)cc1 (stereo not given),-19.6,1.3,0.677,-1.9,-8.1,5.1,i,10.6,5.8,-1.4
COc1cccc(Nc2nc(-c3sc(N)nc3C)cs2)c1,5.9,0.4,0.699,-4.7,-20.1,8.7,i,-5.1,3.3,3.9
NC(=O)c1nsc(C(=O)N(c2cccc(F)c2)C(C(=O)NCc2ccccc2)c2ccc(O)cc2)c1N (stereo not given),-40.9,-0.3,0.646,1.8,6.1,0.5,i,-15.6,-24.2,1.6
Cc1cc(Cl)c(S(=O)(=O)Nc2ccc(S(=O)(=O)N3CCOCC3)cc2)cc1OCC(N)=O,5.7,0.6,0.71,-1.9,-13.6,-1.9,i,2.8,-1.6,5.3
COc1ccc(/C=C2\COc3ccccc3C2=O)c(OC)c1,1.2,-0.1,0.679,4.5,-4.3,8.9,i,-7.3,-21.8,1.9
O=C(Nc1ccc(Br)cc1)N1CCCCCC1,3.9,-0.6,0.691,-3.8,-6.8,-0.2,i,-12.8,-11.0,-0.3
COc1ccccc1Nc1ncc(C(C)=O)c(C)n1,-5.0,-3.7,0.745,-0.5,-5.4,.,.,.,.,.
CN(CCc1ccccn1)C(=O)c1ccc(OC(F)(F)F)cc1,2.3,-0.1,0.686,-8.1,-5.0,-1.3,i,2.6,-2.0,-2.0
CCN1CCN(CCCNC(=O)c2ccc(NC(=O)C3=C(C)OCCS3)cc2)CC1,-1.3,?,0.67,-4.2,-26.6,0.4,i,2.2,7.1,-0.6
O=C(NCc1ccco1)C1Cc2cc(Cl)ccc2O1 (stereo not given),1.3,-0.2,0.656,-0.3,4.5,-3.6,.,-0.8,-4.6,-1.1
O=C(Nc1cccnc1)C1=NN(C2CCS(=O)(=O)C2)C(=O)CC1 (stereo not given),5.5,0.7,0.65,0.3,-3.9,1.7,i,9.8,-5.1,-3.0
CCOC(=O)c1sc2nc[nH]c(=O)c2c1C,-2.6,-0.4,0.69,-10.8,-7.9,.,.,.,.,.
Cc1cccc(N=C2C(=O)Nc3c(Cl)cccc32)c1,3.0,0.3,0.656,-6.6,2.9,0.3,i,-6.2,2.4,1.1
Cc1ccc(CN2C(=O)CCC2C(=O)NCCN2CCN(c3cccc(Cl)c3)CC2)cc1 (stereo not given),4.3,0.3,0.666,-12.1,8.3,4.9,i,-32.0,-40.0,2.4
CNC(=O)COC(=O)c1ccccc1Nc1ccccc1,1.7,1.2,0.722,-3.7,-17.7,0.5,i,1.5,-0.9,-4.1
CN(CCO)c1ccc(C=NNc2ccc([N+](=O)[O-])cc2S(=O)(=O)Nc2ccccc2C(=O)O)cc1,13.6,-1.6,0.689,-0.9,.,?,.,-14.1*,7.3*,6.0*
CC1CCN(Cc2nnnn2CCCC(=O)NCCc2cnn(C)c2)CC1,2.5,-0.7,0.7,-0.7,-8.3,-2.1,i,20.9,22.4,0.5
N#C/C(=C/c1ccc(Oc2ccc([N+](=O)[O-])cn2)cc1)C(=O)N1CCOCC1,1.9,0.3,0.627,-4.1,-1.7,1.2,i,11.9,11.5,8.2
Oc1ccc(Br)cc1/C=N/n1c(C2CCCCC2)n[nH]c1=S,.,-0.8,.,-17.5,-4.7,-3.2,i,15.1,6.7,-4.1
O=C(CSc1ncnc2c1nnn2Cc1ccccc1)NC1CCCC1,0.8,-0.5,0.725,-11.1,51.7,-0.3,i,0.5,0.8,-2.4
Cc1oc2c(CN(C)C)c(O)ccc2c(=O)c1-c1cscn1,-242.0,0.0,0.703,-0.4,-0.9,.,.,.,.,.
COc1ccc(C(=O)O)cc1S(=O)(=O)N1CCN(Cc2ccc3c(c2)OCO3)CC1,-1.9,0.5,0.677,-2.5,.,1.9,i,5.2,6.4,0.7
O=C(c1ccccc1)N1CCCCC(S(=O)(=O)c2ccc3ccccc3c2)C1=O (stereo not given),1.9,-1.1,0.744,-4.9,-12.7,.,.,.,.,.
Cc1ccc(C(=O)CCNc2cccc(Br)c2)o1,1.4,-0.3,0.658,-9.7,-9.0,.,.,.,.,.
CCN1CCN(C(=O)c2ccc3c(c2)N(Cc2ccc(F)cc2)C(=O)c2ccccc2S3=O)CC1 (stereo not given),2.9,-0.3,0.745,-1.9,-2.0,0.8,i,8.3,2.6,-0.9
CN(N)C(=S)NCc1ccccc1,2.4,-0.6,0.662,-7.9,3.8,.,.,.,.,.
COc1ccc(-c2[nH]ncc2CN2CCC(OCc3ccccn3)CC2)c(F)c1,4.9,-0.8,0.646,0.1,-15.4,1.3,i,1.2,-4.3,-6.0
CCOc1ccccc1CN1CCN(Cc2nc3ccccc3s2)CC1CCO (stereo not given),3.1,-0.6,0.729,-0.9,58.0*,2.1,i,7.6,-5.4,4.8
O=C1NC(=O)/C(=C/c2ccc(O)cc2)S1,4.3,-5.8,.,1.6,10.4,1.0,i,4.9,-7.0,-2.8

# From PubChem BioAssay

# The list is partial; count on the stated rates, not on these rows.
